# Rango dissoc inh – inhibitors of RanGTP-induced Rango-importin beta complex dissociation; O95149+P62826; Biochemical FRET Rango-importin beta, RanGTP-induced dissociation; Potency, µM (titrated, usually from 46.1 µM), for the others: at the top dose activity change, negative = inhibition; 340,000 tested, 0.071% active; AID 540253; active means falling FRET ratio curve, often poorly fitted, with flat reads before Ran was added; inconclusive means other falling curves, or compound fluorescence or quenching; inactive means flat or rising ratio curve;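 note: potency is the fitted concentration of half-maximal effect; % of control where 0% means no effect; nearly all actives have a fitted effect of over 45% in size; -100% = wells without RanGTP and RCC1; the record marks most hits as doubtful in a second field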
#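 FRET read at 45 min, room temperature: inhibitors block the CFP/YFP signal rise when RanGTP (0.6 uM Ran, 2 mM GTP, 0.2 uM RCC1) frees Rango (0.1 uM) from importin beta (0.25 uM). Pre-read after 5 min compound exposure flags interference.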
# GLA inh pH 4.5 – alpha-galactosidase A (human) inhibition, pH 4.5. P06280. purified enzyme, 4-MU-alpha-Gal fluorescence, pH 4.5. activity change, negative = inhibition, % at 105 µM. 230,000 tested, under 10 active. AID 1467; inconclusive = small, poorly fitted or top-dose-only inhibition, or a rising curve; inactive = flat fitted curve, though single readings scatter; no compound was filed as active;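 note: 0% = full activity with enzyme and -100% = basal without enzyme; dose as in the result columns while the protocol names 77 µM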
# Target sequence (P06280 whole entry, looked up): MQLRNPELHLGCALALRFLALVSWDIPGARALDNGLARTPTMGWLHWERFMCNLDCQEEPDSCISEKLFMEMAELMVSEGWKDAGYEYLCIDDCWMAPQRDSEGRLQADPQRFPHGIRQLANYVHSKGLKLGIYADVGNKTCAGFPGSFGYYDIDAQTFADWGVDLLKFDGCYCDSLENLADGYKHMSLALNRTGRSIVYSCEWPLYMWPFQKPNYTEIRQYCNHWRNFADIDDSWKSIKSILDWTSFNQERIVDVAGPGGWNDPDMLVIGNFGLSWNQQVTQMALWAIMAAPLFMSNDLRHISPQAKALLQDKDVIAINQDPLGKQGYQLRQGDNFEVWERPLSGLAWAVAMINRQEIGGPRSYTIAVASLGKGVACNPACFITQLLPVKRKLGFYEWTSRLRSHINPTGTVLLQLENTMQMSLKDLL
# Rango complex inh – Rango-importin beta binding inhibition. Rango CFP/YFP FRET sensor + importin beta, 45 min. Potency, µM (highest dose often 92.2 µM), inactives show top-dose inhibition of complex formation. 340,000 tested, 0.031% active; active = rising FRET ratio curve, often small or poorly fitted; inconclusive = mostly compound fluorescence or quenching in the first reads; inactive = flat curves in all reads;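 note: potency is the fitted concentration of half-maximal effect; 0% = DMSO wells and 100% = buffer wells lacking importin beta; nearly all actives have a fitted effect of over 15% in size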
#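 FRET biosensor (snurportin 1 IBB flanked by EYFP and cerulean), 50 nM, with compound 5 min, then 0.125 microM importin beta in PBS, 1 mM DTT, 0.02% Tween-20, 0.1% BSA. CFP/YFP ratio read after 45 min at room temperature; pre-read flags interference.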
# miR-21 FLuc – miR-21 reporter, rising signal. HeLa miR-21 FLuc reporter, luciferase, 48 h. 340,000 tested, under 10 active. AID 2288. Potency, µM (top dose mostly 38.3 µM), for the others: at the top dose reporter change, positive = more light; active = well fitted rising curve with a large enough effect; inconclusive = small, poorly fitted or top-dose-only effect; inactive = no such curve, though single readings can be large or run the other way;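 note: % of control where 0% means no effect; miR-21 action dims this reporter so a rising signal means less miR-21 action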
#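 Luminescence from a firefly luciferase reporter carrying a miR-21 binding site downstream, stably expressed under a CMV promoter in HeLa cells that make miR-21 endogenously, reports miRNA modulation after 48 h compound exposure up to approximately 40uM final.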
# * hit, by the source's call; ? = inconclusive; nt = not tested or not shown. A portion of the library; the hit share may differ from the screen's.
Rango dissoc inh	GLA inh pH 4.5	Rango complex inh	miR-21 FLuc	molecule
-9%	nt	1.3%	nt	O=C(CSc1nnc(-c2ccncc2)n1-c1ccccc1)NCC1CCCO1 (stereo not drawn)
0%	-6	6.7%	3%	O=C(O)CSc1ccccn1
-5%	-2	-2.2%	-5%	Cc1nn(C)c(C(=O)N/N=C/c2ccc(Br)cc2)c1Cl
3%	-8	2.0%	-31%	OCC1CCN(Cc2cn(Cc3ccccc3)nc2-c2cc3ccccc3o2)CC1
4%	-6	-4.5%	-2%	CCOC(=O)c1ccccc1NC(=O)CN1C(=O)CCS(=O)(=O)c2ccccc21
0%	14	3.6%	-5%	C/C(CCc1ccc2c(c1)OCO2)=N\N=C1\NC(=O)CC(C(=O)Nc2ccc(Cl)cc2)S1 (stereo not drawn)
1%	-27	-0.6%	-5%	CCOC(=O)c1nnn2c1nc(N1CCOCC1)c1ccccc12
1%	nt	0.3%	-3%	CC(=O)Nc1ccc(NC(=O)c2c([N+](=O)[O-])cnn2C)cc1

# Next part; the last 7 above are carried over.
Rango dissoc inh	GLA inh pH 4.5	Rango complex inh	miR-21 FLuc	molecule
0%	-6	6.7%	3%	O=C(O)CSc1ccccn1
-5%	-2	-2.2%	-5%	Cc1nn(C)c(C(=O)N/N=C/c2ccc(Br)cc2)c1Cl
3%	-8	2.0%	-31%	OCC1CCN(Cc2cn(Cc3ccccc3)nc2-c2cc3ccccc3o2)CC1
4%	-6	-4.5%	-2%	CCOC(=O)c1ccccc1NC(=O)CN1C(=O)CCS(=O)(=O)c2ccccc21
0%	14	3.6%	-5%	C/C(CCc1ccc2c(c1)OCO2)=N\N=C1\NC(=O)CC(C(=O)Nc2ccc(Cl)cc2)S1 (stereo not drawn)
1%	-27	-0.6%	-5%	CCOC(=O)c1nnn2c1nc(N1CCOCC1)c1ccccc12
1%	nt	0.3%	-3%	CC(=O)Nc1ccc(NC(=O)c2c([N+](=O)[O-])cnn2C)cc1
-2%	3	?	1%	COC(=O)[C@@H](NC(=O)N(C1CCCCC1)C1CCCCC1)C(C)C
1%	-4	-0.6%	?	Cc1ccc(C(=O)C[n+]2cc(-c3ccc(C)cc3)n3c2CCCCC3)cc1
11%	-19	-2.4%	3%	CCC1(C)Cc2ccccc2-c2nc(NCCCO)n(C)c(=O)c21 (stereo not drawn)
-11%	nt	-1.5%	1%	COc1ccc(N2CCN(C(=O)c3cc(=O)c4ccc(C)cc4o3)CC2)cc1
0%	3	-2.3%	0%	Nc1nonc1N1CCCCC1
-4%	nt	-3.0%	13%	CC1CCN(c2ccc(S(=O)(=O)N3CCC(C)CC3)cc2N)CC1
12%	-1	3.2%	10%	CC(=O)Nc1ccc(NC(=O)CSc2nnc(-c3ccco3)n2Cc2ccco2)cc1
0%	nt	5.0%	-21%	CC(C)(C)c1nc(SCC(=O)NC2CCCC2)c2ccccc2n1
-5%	nt	-0.1%	-1%	NS(=O)(=O)c1ccc(CNC(=O)c2cc(=O)c3ccccc3o2)cc1
?	-1	?	-3%	COc1cc(/C=C(\C#N)C(=O)NCc2cccs2)ccc1O
-14%	-13	-5.4%	19%	O=C(Nc1cc(Cl)cc(Cl)c1)C1CCC(=O)N1Cc1ccccc1Cl (stereo not drawn)
-11%	6	1.4%	-2%	COc1cc(S(=O)(=O)Nc2ccc3cn[nH]c3c2)ccc1Cl
-15%	-6	?	-5%	CO[C@@]1(NC(=O)Cc2cccs2)C(=O)N2C(C(=O)O)=C(COC(N)=O)CS[C@@H]21
-15%	-6	2.3%	12%	CC(=O)Nc1ccc(NC(=O)c2ccc(C)c(S(=O)(=O)Nc3cccc(C)c3)c2)cc1
-5%	5	1.4%	-3%	CN1CCN(c2ccccc2NC(=O)c2ccc([N+](=O)[O-])cc2Cl)CC1
-2%	-7	1.3%	3%	COc1ccc2c(-c3ccccc3)cc(SCC(=O)N(C)C)nc2c1
-15%	nt	1.3%	nt	O=C(NCC1CCCO1)c1cn(Cc2ccccc2Cl)nc1-c1ccccc1 (stereo not drawn)
-8%	nt	0.8%	-37%	C=CCN1CCN(C(=O)c2cc3c(s2)CCC(CC)C3)CC1 (stereo not drawn)
?	nt	?	nt	COc1ccc(OC)c(/C=C/c2ccnc3ccccc23)c1
-6%	-9	-3.7%	-6%	CC(C)C(c1nnnn1Cc1ccc(F)cc1)N1CCN(C(=O)c2ccco2)CC1 (stereo not drawn)
11%	5	?	-2%	O=C(c1cccc(F)c1F)N1CCCC1
0%	nt	-4.1%	-5%	CCCc1cc(=O)oc2c(C)c(OCC(=O)NCCCN3CCOCC3)ccc12
2%	4	-1.9%	-20%	C/C(N)=C(\C#N)C(=O)NCc1ccccn1
1%	nt	-1.7%	17%	CN(C)S(=O)(=O)N1CCC(Oc2ccc(C(=O)N3C[C@H]4CC[C@H]3C4)cc2)CC1

# Among those listed so far, these have a thiophene ring, fused or not:
Rango dissoc inh	GLA inh pH 4.5	Rango complex inh	miR-21 FLuc	molecule
?	-1	?	-3%	COc1cc(/C=C(\C#N)C(=O)NCc2cccs2)ccc1O
-15%	-6	?	-5%	CO[C@@]1(NC(=O)Cc2cccs2)C(=O)N2C(C(=O)O)=C(COC(N)=O)CS[C@@H]21
-8%	nt	0.8%	-37%	C=CCN1CCN(C(=O)c2cc3c(s2)CCC(CC)C3)CC1 (stereo not drawn)

# Further entries follow.
Rango dissoc inh	GLA inh pH 4.5	Rango complex inh	miR-21 FLuc	molecule
?	1	5.9%	0%	COCCSc1nnc(-c2cccc(C#N)c2)n1C
-24%	6	0.1%	0%	CCOc1ccc(S(=O)(=O)NCc2ccco2)cc1
-1%	3	-4.6%	-46%	COc1ccc(C(=O)Nc2sc(C)c(C)c2CN2CC(C)OC(C)C2)cc1 (stereo not drawn)
4%	nt	-2.4%	nt	O=C(COC(=O)C1CCC1)Nc1ccc(Cl)cn1
-14%	0	0.0%	-2%	COCCNC(=O)/C(C#N)=C/c1ccc(C(=O)O)cc1
2%	2	4.2%	-5%	O=C(O)/C(=C1/OC(=O)c2ccccc21)c1ccccc1
33%	-1	6.1%	-3%	Cc1cc(C)c2c(c1)c(C)cc1nnc(SCC(=O)c3cccs3)n12
52%	3	0.3%	-9%	CC(C)C(=O)NNC(=O)CSc1nc(C2CCCCC2)nc2ccccc12

# An excerpt of these results, with two lines to a compound:
# Results follow in this order: Rango dissoc inh | GLA inh pH 4.5 | Rango complex inh | miR-21 FLuc
> O=C(O)/C(=C1/OC(=O)c2ccccc21)c1ccccc1
    2% | 2 | 4.2% | -5%
> Cc1cc(C)c2c(c1)c(C)cc1nnc(SCC(=O)c3cccs3)n12
    33% | -1 | 6.1% | -3%
> CC(C)C(=O)NNC(=O)CSc1nc(C2CCCCC2)nc2ccccc12
    52% | 3 | 0.3% | -9%

# Remaining list, next part
Rango dissoc inh	GLA inh pH 4.5	Rango complex inh	miR-21 FLuc	molecule
-4%	12	-0.4%	-2%	CCOC(=O)C1CCCCN1Cc1cc(Cl)ccc1O (stereo not drawn)
?	nt	?	nt	CCc1ccc(C(=O)NNC(=O)CCc2nc3ccccc3c(=O)[nH]2)cc1
23%	-5	1.1%	-25%	C/C(=C\C(=O)c1ccccc1)NCc1ccc(F)cc1
0%	nt	-4.8%	nt	Cc1cc(NC(=O)COC(=O)C2CC2)ccc1Br
-9%	nt	1.5%	nt	O=S(=O)(c1ccc(F)cc1)N1CCN(C(=S)NCC2CCCO2)CC1 (stereo not drawn)
-9%	4	0.5%	1%	COC(C(=O)Nc1ccccc1F)c1ccccc1 (stereo not drawn)
-10%	-5	0.1%	-7%	CCOc1cc(/C=N/NC(=O)CNc2ccc(C)cc2)ccc1OC(=O)c1ccccc1
2%	3	-0.7%	6%	COc1ccc(Nc2nc(Cl)nc(Nc3ccc(OC)cc3)n2)cc1
-15%	-4	4.1%	-61%	CC(=O)Nc1ccc(C(=O)NCCc2ccccc2)cc1
0%	nt	2.4%	1%	COc1cc(S(=O)(=O)NCc2ccc3c(c2)OCO3)c(OC)cc1C
1%	-2	4.4%	-1%	O=S(=O)(CCN1CCSCC1)c1ccccc1
-10%	-5	-4.6%	-4%	CCCOc1ccc(CSc2nc3ccccc3[nH]2)cc1
-14%	6	5.7%	-4%	COc1ccc(N2CCN(c3ccc(N4C(=O)COCC4=O)cc3[N+](=O)[O-])CC2)cc1
-2%	-3	-6.6%	1%	O=C(O)CCCCCNC(=O)Cn1nnc2ccccc2c1=O
-20%	0	0.5%	15%	O=C(/C=C/c1ccccc1Cl)Nc1cccc(O)c1
28%	-6	-0.2%	8%	C=CCc1c(C)nc(-c2ccccc2)nc1N/N=C/c1ccncc1
10%	-27	-0.2%	-7%	Cc1ccc(C2N(c3cccc(Cl)c3)C(=O)N3CCCN23)cc1 (stereo not drawn)
0%	5	0.0%	11%	O=C(NNc1nc(-c2ccc(Br)cc2)cs1)c1ccco1
-6%	nt	-4.1%	0%	CCOC(=O)c1ccccc1NC(=O)c1ccc2c(SCC(=O)O)c3c(nc2c1)CCCC3
1%	nt	-1.6%	0%	COc1ccccc1N(CC(=O)NC1CCCC1)C(=O)C1(C)CC(=O)N=C2C=CC(C)=CN21 (stereo not drawn)
-8%	-3	?	-23%	O=C(N/N=C/c1cccs1)c1cccnc1
1%	nt	5.7%	nt	CN(CC(=O)Nc1cc(Cl)ccc1Cl)C1CCS(=O)(=O)C1 (stereo not drawn)
6%	nt	-1.9%	nt	Cc1c(NC(=O)CSc2ncnc3c2cnn3-c2ccccc2)c(=O)n(-c2ccccc2)n1C
nt	0	nt	1%	Cc1ccc2[nH]c3c(c2c1)CN(C(=O)CN1CCN(c2ccccc2F)CC1)CC3
2%	nt	3.1%	4%	C[C@H]1CCC(=O)N([C@H](CSc2ccccc2)Cc2ccccc2)CC1
-15%	nt	2.6%	?	Cc1onc(-c2ccccc2Cl)c1C(=O)O/N=C(\N)c1ccccc1
3%	2	-2.8%	-2%	Cc1ccc(SC(C)C(=O)Nc2ccc(S(=O)(=O)N3CCOCC3)cc2)cc1 (stereo not drawn)
5%	nt	-3.0%	-60%	O=Cc1c(-c2ccccc2)cc2oc3ccccc3cc1-2
10%	-6	1.2%	-41%	CCOC(=O)c1ccc(NC(=O)c2ccccc2)cc1
3%	-16	1.7%	2%	Clc1ccc(CSc2nnc(-c3ccc4c(c3)OCO4)o2)cc1
0%	1	-0.8%	0%	CC(=O)Nc1ccc(C)c([N+](=O)[O-])c1
2%	nt	-2.9%	-8%	Cc1c2cnn(CC(=O)NCCCN3CCCCC3)c(=O)c2c(C)n1Cc1ccccc1
-1%	9	1.1%	0%	CC(C)=CC(=O)OCC(=O)Nc1cc([N+](=O)[O-])ccc1F
-4%	-3	-3.2%	9%	O=C(COC(=O)c1cc(NS(=O)(=O)c2cccs2)ccc1O)Nc1ccc(F)c(F)c1F
16%	9	-1.2%	-4%	CCOC(=O)c1oc2ccc(S(=O)(=O)n3nc(-c4ccc(OC)cc4)cc3N)cc2c1C
-9%	7	0.6%	0%	O=C(/C=C/Nc1ccc(OC(F)(F)F)cc1)C(F)(F)F
-18%	nt	?	12%	CCOc1ccc(C(C(=O)NC2CCCC2)N(C(=O)c2snc(C(N)=O)c2N)c2cccc(O)c2)cc1 (stereo not drawn)
24%	-1	-0.3%	8%	CCCN(CC(=O)Nc1ccc(C(N)=O)cc1)CC(=O)Nc1ccccc1C
-2%	1	1.4%	-1%	CCS(=O)(=O)N1CCC(C(=O)NCc2ccc(OC)cc2OC)CC1
10%	nt	0.8%	-8%	CC(C)NC(=O)CN1CCN(C(=O)c2ccc3oc(CCCc4ccccc4)nc3c2)CC1
-12%	0	-0.5%	-48%	Clc1ccc(SCc2cn3ccsc3n2)cc1
-7%	-3	2.7%	-4%	Cc1c(C(=O)N/N=C/c2cccnc2)sc(=S)n1C
38%	9	0.1%	-1%	O=C(CSc1nnc2ccccn12)NC(=O)Cc1ccccc1
-8%	-1	-6.9%	-10%	Cc1nccc(-c2ccc3c(c2)OCO3)n1
7%	4	-3.3%	2%	CC(C)n1c(SCC(N)=O)nc2c1c(=O)[nH]c(=O)n2C
-21%	-9	-1.9%	3%	CCOC(=O)c1c(NC(=O)CSc2nnc(CNc3ccc(C)cc3C)o2)sc(C)c1C
-6%	nt	0.3%	-4%	Cn1ccnc1SCc1cccc([N+](=O)[O-])c1
2%	2	-1.4%	-5%	Clc1ccc(Sc2cc(N3CCOCC3)nc(-c3ccccc3)n2)cc1

# High-throughput results as filed in PubChem.
